Source: PubChem (National Center for Advancing Translational Sciences (NCATS))
GLA inh pH 4.5: qHTS Assay for Inhibitors of Human alpha-Galactosidase at pH 4.5. activity change, negative = inhibition, % at 105 µM. purified enzyme, 4-MU-alpha-Gal fluorescence, pH 4.5. AID 1467, 2008. Alpha-galactosidase A (Homo sapiens), P06280. 230,000 tested, under 10 active; inconclusive = small, poorly fitted or top-dose-only inhibition, or a rising curve; inactive = flat fitted curve, though single readings scatter; no compound was filed as active;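 further: 0% = full activity with enzyme and -100% = basal without enzyme; dose as in the result columns while the protocol names 77 µM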
Target sequence (P06280 whole entry, looked up): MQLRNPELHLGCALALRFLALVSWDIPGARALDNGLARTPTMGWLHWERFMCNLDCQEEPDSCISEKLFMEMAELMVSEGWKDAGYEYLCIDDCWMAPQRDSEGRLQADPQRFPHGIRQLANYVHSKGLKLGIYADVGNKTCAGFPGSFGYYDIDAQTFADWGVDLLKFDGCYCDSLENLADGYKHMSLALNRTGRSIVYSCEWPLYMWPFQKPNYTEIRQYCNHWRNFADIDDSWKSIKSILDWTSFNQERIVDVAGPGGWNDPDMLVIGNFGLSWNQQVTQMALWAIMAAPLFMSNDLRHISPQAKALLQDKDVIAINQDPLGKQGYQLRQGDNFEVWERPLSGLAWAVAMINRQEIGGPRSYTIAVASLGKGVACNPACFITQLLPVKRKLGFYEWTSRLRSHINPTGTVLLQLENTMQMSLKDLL
Rango release inh: qHTS Assay for Inhibitors of RanGTP induced Rango (Ran-regulated importin-beta cargo) - Importin beta complex dissociation. Snurportin-1 (Homo sapiens) + GTP-binding nuclear protein Ran (Homo sapiens) + Importin …. Biochemical FRET Rango-importin beta, RanGTP-induced dissociation. Potency, µM (doses to about 46.1 µM), without a hit: at the highest dose activity change, negative = inhibition. hit rate 0.071% among 340,000. AID 540253, 2011; active means falling FRET ratio curve, often poorly fitted, with flat reads before Ran was added; inconclusive means other falling curves, or compound fluorescence or quenching; inactive means flat or rising ratio curve;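 further: potency means the concentration at half of the fitted maximal effect; % of control where 0% means no effect; nearly all actives have a fitted effect of over 45% in size; -100% = wells without RanGTP and RCC1; the record marks most hits as doubtful in a second field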
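Rango FRET biosensor (snurportin-1 IBB flanked by N-terminal EYFP and C-terminal CFP10) at 0.1 uM, with 0.25 uM importin beta in PBS, 1mM DTT, 0.02% Tween-20, 0.1% BSA. 0.6 uM Ran, 2mM GTP and 0.2 uM RCC1 were then added for 45 min at room temperature. Inhibition read as loss of FRET rise.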
Rango-impB inh: qHTS Assay for Inhibitors of Rango (Ran-regulated importin-beta cargo) - Importin beta complex formation. Importin subunit beta-1 (Homo sapiens), Q14974. Rango CFP/YFP FRET sensor + importin beta, 45 min. Potency, µM (highest dose often 92.2 µM), for the others: at the highest dose inhibition of complex formation. hit rate 0.031% among 340,000. AID 540263, 2011; active = rising FRET ratio curve, often small or poorly fitted; inconclusive = mostly compound fluorescence or quenching in the first reads; inactive = flat curves in all reads;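 further: potency means the concentration at half of the fitted maximal effect; 0% = DMSO wells and 100% = buffer wells lacking importin beta; nearly all actives have a fitted effect of over 15% in size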
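FRET biosensor (snurportin 1 IBB flanked by EYFP and cerulean), 50 nM, with compound 5 min, then 0.125 microM importin beta in PBS, 1 mM DTT, 0.02% Tween-20, 0.1% BSA. CFP/YFP ratio read after 45 min at room temperature; pre-read flags interference.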
miR-21 reporter: qHTS Assay for Modulators of miRNAs and/orActivators of miR-21. HeLa miR-21 FLuc reporter, luciferase, 48 h. Potency, µM (highest dose often 38.3 µM), inactives show at the highest dose reporter change, positive = more light. 340,000 tested, under 10 active. AID 2288, 2010; active = well fitted rising curve with a large enough effect; inconclusive = small, poorly fitted or top-dose-only effect; inactive = no such curve, though single readings can be large or run the other way;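 further: % of control where 0% means no effect; miR-21 action dims this reporter so a rising signal means less miR-21 action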
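HeLa miR-21-FLuc reporter line, endogenous miR-21; 2000 cells/well in DMEM/10% FBS; compound titration up to ~40uM final, 48 h, 37 degree Celsius; luciferase detection reagent, 15 min lysis, CCD luminescence.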
* hit, by the source's call; ? = inconclusive; . = not tested or not shown; & = joins results of further samples; [ ] = another dose, or the depositor's remark. Only part of the results is shown (hit frequency here may not be typical).

structure	GLA inh pH 4.5	Rango release inh	Rango-impB inh	miR-21 reporter
Cc1ccc(C)c(C(C)NC(=O)C2CCCO2)c1 (stereo unspecified)	.	-4%	-1.6%	3%
O=C(Nc1ncc2c(n1)-c1ccccc1CC2)c1cccc(Cl)c1	-3	-12%	0.2%	0%
C=CCSc1nnc(-c2cnn(-c3ccccc3)c2-n2cccc2)n1C	9	2%	0.9%	-5%
CC1CCCC(C)N1C(=O)COC(=O)Cn1cnc2c1c(=O)n(C)c(=O)n2C (stereo unspecified)	.	7%	1.5%	.
COc1ccccc1C(=O)Nc1c2c(nn1-c1cccc(C)c1C)CS(=O)C2 (stereo unspecified)	-7	13%	-3.8%	-12%
CCOC(=O)C1=NN(C(C)=O)C2(CC(=O)N(c3ccc(C)c(C)c3)C2=O)C1 (stereo unspecified)	-7	-7%	-0.3%	4%
Cc1ccc(C)c(NC(=O)C(NCC(C)(C)N2CCOCC2)c2ccccc2)c1 (stereo unspecified)	-1	-25%	-3.7%	-2%
COc1cc(OC)c(OC)cc1CN(C)C(c1ccccc1)c1nnnn1-c1ccccc1C (stereo unspecified)	3	1%	1.2%	0%
COc1ccc(/C=N/NC(=O)c2cccc(S(=O)(=O)N3CCCC3)c2)cc1O	.	-7%	1.0%	.
Cc1cc(C)nc(NNS(=O)(=O)c2c(C)cc(C(C)(C)C)cc2C)n1	.	-4%	7.6%	.
O=C(CCc1nnc(CCCCc2ccccc2)o1)NCCn1cccn1	8	-15%	-0.1%	3%
CCNc1nc(=S)nc(NC(C)C)[nH]1	0	12%	0.1%	-9%
O=S(=O)(N/N=C\C=C\c1ccccc1)c1ccccc1	.	-8%	0.2%	.
CSc1ccccc1-n1nnnc1SCc1ccccc1	-12	1%	0.2%	-3%
CC(=O)c1cccc(-c2csc(N3CCC(C(N)=O)CC3)n2)c1	.	-6%	1.5%	.
CC(=O)c1cccc(NC(=O)COc2ccc(S(=O)(=O)N3CCCCC3)cc2)c1	-3	-6%	4.5%	-2%
O=[N+]([O-])c1cccc(S(=O)(=O)N/N=C/c2ccc(O)cc2)c1	?	8%	2.3%	-1%
c1ccc(CCn2c3ccccc3c3nnc(SCc4ccc5nonc5c4)nc32)cc1	-1	13%	0.1%	-9%
O=C(CCC(=O)Nc1ccccc1Cl)N/N=C1\CCCc2ccccc21	3	0%	1.1%	-9%
Cc1cccc(N(CC(=O)NC2CCCC2)C(=O)c2c(C)noc2C)c1	8	-5%	2.6%	-6%
Cc1ccc(OCCN2CCN(c3nc(NCc4ccco4)c4ccccc4n3)CC2)cc1	-5	1%	-0.3%	24%
Clc1cccc(-c2nc3nc4ccccc4nc3n2Cc2ccco2)c1	-3	10%	?	-21%
COC(=O)[C@@H]1[C@@H](C)N(Cc2ccccc2)C(=O)N[C@H]1c1ccccc1	2	8%	2.5%	.
CCN1CCN(C(c2cccs2)C(C)NC(=O)c2ccccc2F)CC1 (stereo unspecified)	1	11%	-0.3%	-3%
CC(=O)Nc1ccc(SCC(=O)N2CCN(S(=O)(=O)c3ccccc3)CC2)cc1	.	13%	0.7%	4%
CN(CCc1ccccn1)C(=O)CCC1CCCN(C(=O)c2n[nH]c3c2CCCC3)C1 (stereo unspecified)	9	2%	0.7%	0%
O=C(NC1C2CC3CC(C2)CC1C3)c1ccc(Br)o1 (stereo unspecified)	.	-1%	3.6%	-14%
CCCN(CC(=O)Nc1ccccc1C)C(=O)c1ccc(OCC(=O)N2CCOCC2)c(OCC)c1	.	-7%	-0.3%	.
O=C(Nc1cnccn1)c1ccncc1	0	11%	0.3%	3%
COc1ccc(-n2nnnc2SCc2nc(N)nc(N3CCOCC3)n2)cc1	-4	26%	0.8%	-8%
CCCCn1cnc2c(sc3nc4c(cc32)CSC(C)(C)C4)c1=O	3	-18%	-0.2%	-64%
O=C1C(=O)N(c2ccccc2)C(c2ccccc2)C1c1ccccc1 (stereo unspecified)	.	-1%	2.7%	.
COc1ccc(N(C(=O)c2ccn[nH]2)C(C(=O)NC(C)(C)C)c2ccc(F)cc2)cc1 (stereo unspecified)	-3	-12%	-2.8%	4%
Cc1ccc(C(=O)CSc2nn3c(=O)c(C(C)(C)C)nnc3s2)cc1	-5	2%	3.9%	-3%
CCc1ccc(C(=O)NC(=S)Nc2ccccc2N2CCOCC2)cc1	.	-3%	1.8%	11%
Cc1cccc(-c2nc(Nc3ccc(N4CCOCC4)cc3)c3ccccc3n2)c1	-8	8%	-2.8%	18%
Cc1ccc(S(=O)(=O)N(C)C)cc1NC(=O)C(C)OC(=O)/C=C/c1cccs1 (stereo unspecified)	-2	12%	-3.3%	-2%
Cc1ccsc1C(=O)OCC(=O)N1CCc2ccccc2C1	4	6%	-1.2%	-63%
CCOc1ccc(Br)cc1S(=O)(=O)Nc1ncn[nH]1	.	6%	-3.1%	6%
COc1ccc(CCNC(=O)C23CCC(C)(C(=O)C2=O)C3(C)C)cc1OC (stereo unspecified)	-8	-10%	0.9%	-1%
Cc1ccc(NC(c2ccccc2)c2nc3ccccc3[nH]c2=O)cc1 (stereo unspecified)	-4	8%	-0.8%	-4%
COc1cc(/C=N\NC(=O)c2cccnc2)ccc1OC(=O)c1ccccc1Cl	.	-14%	3.7%	2%
O=C(CCNC(=O)c1ccc([N+](=O)[O-])cc1)Nc1ccccc1N1CCOCC1	4	-1%	-2.7%	-1%
COc1ccc(C(=O)C[n+]2cc(Br)cc3ccccc32)cc1[N+](=O)[O-]	.	-1%	?	-4%
COc1ccc(/C(O)=C2/C(=O)C(=O)N(CCCN3CCOCC3)C2c2ccc(N(C)C)cc2)cc1 (stereo unspecified)	.	?	?	-9%
CCCNC(=O)CC(NS(=O)(=O)c1ccc(NC(C)=O)cc1)C(C)C (stereo unspecified)	-2[21.1 µM]	-6%	3.5%	1%
Cc1ccc(-n2nc(C)c3c2OC(N)=C(C#N)C3c2cccs2)cc1 (stereo unspecified)	2	5%	-1.6%	-16%
Cc1cccc(C)c1NC(=O)CN(C)CC(=O)N1CC(=O)Nc2ccccc21	.	6%	-1.8%	.
Cn1c(=O)[nH]c(=O)c2c1nc(SCC(O)CO)n2CCCc1ccccc1 (stereo unspecified)	.	-2%	-1.0%	-8%
Cc1nc(NC(=O)C2CCCCC2)sc1C	-1	0%	5.0%	-55%
CC(=O)CCc1ccc(OCCCCn2cncn2)cc1	2	-1%	0.9%	-13%
O=c1oc(-c2cccs2)nc2ccc(Cl)cc12	1	17%	3.9%	-6%
Cn1cc(/C=N/n2cnc3sc4c(c3c2=O)CCCC4)c2ccccc21	-6	2%	-0.5%	1%
Clc1cccc(CN2CCCCCC2)c1	.	-8%	-0.5%	0%
CC(C)c1ccccc1-n1cc[nH]c1=S	6	10%	?	1%
COc1ccccc1N1CCN(/N=C/c2cccc(OC)c2O)CC1	5	-6%	-1.0%	-4%
Cc1cccc(NC(=O)c2cc3c([nH]c4ccccc43)c(C)n2)c1C	2	-7%	-1.6%	-5%
Cc1cc(C)cc(OCC(O)CN2CCC(CN3C(=O)c4cccc5cccc(c45)C3=O)CC2)c1 (stereo unspecified)	7	-12%	3.8%	-20%
Cc1cc(C(=O)Nc2c(C)nn(Cc3ccc(F)cc3)c2C)on1	-4	10%	1.4%	-1%
Cc1oc2c(c(C)cc3oc(=O)c(CC(=O)NCCCO)c(C)c32)c1C	.	4%	3.6%	-4%

(more compounds)
structure	GLA inh pH 4.5	Rango release inh	Rango-impB inh	miR-21 reporter
c1ccc(-c2cc3ncccc3cn2)cc1	.	0%	-2.2%	.
NS(=O)(=O)c1ccc(CCNC(=O)C(=O)c2cn(CC(=O)N3CCCC3)c3ccccc23)cc1	.	-20%	0.1%	1%
CCCCCOC(=O)C1C2C=CC3(CN(c4ccccc4C)C(=O)C13)O2 (stereo unspecified)	-5	0%	-3.1%	-10%
COc1ccccc1CCC(=O)OCC(=O)N1c2ccccc2NC(=O)C1(C)C	.	-7%	-0.7%	.
C#C[C@]1(O)CCC2C3CCC4=Cc5oncc5CC4(C)C3CCC21C (stereo partly specified)	.	12%	-1.2%	.
Cc1cc(S(=O)(=O)NC2CCCCC2)ccc1-n1cnnn1	-5	-4%	2.3%	-1%
CCOc1ccc(OCCn2ccnc2)cc1	5	2%	0.8%	-8%
N#Cc1c(-c2ccccc2)cc(-c2ccccc2)nc1SCCC(=O)O	.	-5%	7.4%	28%
O=C(COc1ccccc1Cl)Nc1ccc(N2CCN(C(=O)c3ccccc3)CC2)cc1	.	1%	0.1%	29%
Cc1cc(=O)[nH]c(N/N=C/C(C)c2ccccc2)n1 (stereo unspecified)	2	1%	0.4%	-6%
COc1ccc(C2SCC(=O)N2Cc2ccccc2)cc1 (stereo unspecified)	.	1%	-1.2%	-7%
Cc1c(-c2ccccc2)c(-c2ccc(OCCN(C)C)cc2)n2ccccc12	.	-29%	?	.
Cc1ccc(Cn2c(C)cc3c(c2=O)C(c2cccs2)C(C#N)=C(N)O3)cc1 (stereo unspecified)	1	1%	3.0%	3%
Cc1ccc(CNC(=O)CCCn2nc(C)c3c(C)n(-c4ccccc4)nc3c2=O)cc1	.	9%	-0.8%	-2%&0%
N#C/C(=N\Nc1ccc(F)cc1)C(=O)C1CC1	-22	-9%	0.3%	-13%
Cc1cccc(CSc2nnc(NC(=O)CSc3nnc(C)s3)s2)c1	2	3%	-0.4%	-12%
CCN(CC(=O)Nc1c(F)cccc1F)C(=O)Cn1[nH]c(=O)c2ccccc2c1=O	.	1%	0.5%	.
CCOc1ccc(-c2noc(CCC(=O)O)n2)cc1	-3	6%	3.9%	?
CN1c2ccccc2C(=O)/C(=C\Nc2ncccn2)S1(=O)=O	2	10%	0.5%	5%
CC1=CC(C)(C)N(S(=O)(=O)c2ccc(F)cc2)c2ccc(C)cc21	-6	-4%	0.0%	24%
COc1ccc(C(=O)NNC(=O)CCn2nnc(-c3ccc(C)cc3)n2)cc1OC	5	31%	11%	16%
COCCn1ccc2c(OCC(=O)Nc3ccccc3OC)cccc2c1=O	.	6%	5.1%	.
Cc1ccccc1C(=O)NCC(=O)N1CCN(C/C=C/c2ccccc2)CC1	.	-5%	8.3%	.

Compound profiles, from the list above. Values in the order: GLA inh pH 4.5	Rango release inh	Rango-impB inh	miR-21 reporter
CC1=CC(C)(C)N(S(=O)(=O)c2ccc(F)cc2)c2ccc(C)cc21 in the list: -6	-4%	0.0%	24%
COc1ccc(C(=O)NNC(=O)CCn2nnc(-c3ccc(C)cc3)n2)cc1OC in the list: 5	31%	11%	16%
Cc1cccc(CSc2nnc(NC(=O)CSc3nnc(C)s3)s2)c1 in the list: 2	3%	-0.4%	-12%
